From PubChem BioAssay
TRPML1 agonist – qHTS for Agonists of the Human Mucolipin Transient Receptor Potential 1 (TRPML1). TRPML1-expressing cells, Ca2+ dye fluorescence, FDSS; host cell line not named in the record; reference of the full effect not given here. Mucolipin-1 (Homo sapiens), Q9GZU1. 410,000 compounds, 0.12% hits. AID 624414, 2012. activation, % (concentration not given with the values); in the data active = activation above about 50%; inconclusive = about 30% to 50%; inactive = below about 30%; note: 0% is about no effect; the text of the record puts the active cut at 80%
Target sequence (Q9GZU1 whole entry, looked up): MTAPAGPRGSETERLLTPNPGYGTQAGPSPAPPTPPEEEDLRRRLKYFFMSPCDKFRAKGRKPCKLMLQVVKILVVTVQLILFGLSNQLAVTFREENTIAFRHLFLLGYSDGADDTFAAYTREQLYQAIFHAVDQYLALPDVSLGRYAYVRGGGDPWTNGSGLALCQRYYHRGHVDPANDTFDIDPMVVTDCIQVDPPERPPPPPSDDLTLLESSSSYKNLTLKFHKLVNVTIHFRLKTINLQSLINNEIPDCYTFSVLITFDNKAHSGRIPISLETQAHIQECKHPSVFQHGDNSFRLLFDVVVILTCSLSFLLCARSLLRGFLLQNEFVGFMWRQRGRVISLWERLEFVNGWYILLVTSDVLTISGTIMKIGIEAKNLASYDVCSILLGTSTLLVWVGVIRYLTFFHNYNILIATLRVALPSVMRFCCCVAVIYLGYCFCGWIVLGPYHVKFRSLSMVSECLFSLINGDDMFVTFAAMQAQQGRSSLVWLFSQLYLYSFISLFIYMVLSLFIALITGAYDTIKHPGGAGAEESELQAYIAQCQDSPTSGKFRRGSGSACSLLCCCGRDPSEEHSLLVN
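Agonist activity was taken from a 110 s kinetic Ca2+ dye read on the FDSS after pinning compounds onto TRPML1-DL cells. The cells were seeded at 1,500/well with Tet inducer, incubated about 16 h, then dye-loaded at room temperature.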
TRPML1 inh – qHTS for Inhibitors of the Human Mucolipin Transient Receptor Potential 1 (TRPML1); activity change, negative = inhibition, % (no concentration beside the values); Mucolipin-1 (Homo sapiens), Q9GZU1; TRPML1-inducible cells, Ca2+ dye fluorescence, FDSS; active compounds read low; inhibition of EC80 agonist-evoked calcium signal; 390,000 compounds, 0.02% hits; in the data active means activity change below about -50%; inconclusive means about -30% to -50%; inactive means above about -30%;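 note: stimulus is agonist 54-4 at its EC80 concentration; % is set by controls: 0 for no effect and ±100 for the full control effect; compound concentration not given in the record; the text of the record puts the active cut at -80%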
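TRPML1-DL cells, Tet-induced overnight (~16 h, 37 °C) at 1,500 cells/well, were loaded with Ca8 no-wash dye plus quencher for 45-90 min at room temperature. Compounds were pinned during FDSS kinetic reading; agonist 54-4 at EC80 (4 uM final) then added.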
The depositor's hits bear a star; u = inconclusive.

SMILES | TRPML1 agonist | TRPML1 inh
O=C(Nc1ccc2nc(SCC(=O)N3CCc4ccccc43)sc2c1)c1cccc(F)c1 | 2.1 | -11.9
CCOc1ccc(C(=O)Nc2cc(NC(=O)c3ccco3)ccc2OC)cc1Br | 0.3 | -17.8
CCCCN(CC)C(=O)Cn1nc(C)c2c(C)n(-c3ccccc3)nc2c1=O | -1.0 | 2.7
O=C(CSc1nnc(-c2ccc(Cl)cc2)o1)Nc1ccc(F)cc1 | 1.4 | 54.1
Cc1cc(C)c(NC(=O)C(C)n2nc(C)c3sc4ccccc4c3c2=O)c(C)c1 (stereo not given) | -0.2 | -20.5
Cc1nn(CC(=O)N2CCC(C)CC2)c(=O)c2cc3occc3n12 | -0.6 | -6.0
COc1ccc(C2/C=C\CN(C(=O)c3ccc(C)cc3)C(Cc3ccccc3)C(=O)N2Cc2ccc(F)cc2)cc1 (stereo not given) | 0.1 | -1.6
O=C(Cc1ccc(F)cc1)NCCc1csc2nc(-c3ccccc3F)nn12 | 2.2 | -1.3
CCC1CCCCN1Cc1cn2c(-c3ccc(Br)cc3)nnc2s1 (stereo not given) | 0.9 | 8.8
Cc1ccc(-n2nc(CO)c(C(=O)NCc3cccnc3)n2)cc1 | 2.0 | -11.3
Cc1nn(-c2ccccc2)c(OC(=O)C(C)C)c1Sc1ccc(Cl)cc1 | 1.6 | 9.6
CCOC(=O)Cc1ccc(NC(=O)n2ncc3c(C)cccc32)cc1 | -1.2 | -12.3
COc1ccc(C)cc1NC(=O)C(=O)NCCc1sc(-c2cccc(C)c2)nc1C | 2.2 | -11.9
Cc1cccc(N2CCN(S(=O)(=O)c3ccc(F)c(C(=O)Nc4cccc(Cl)c4C)c3)CC2C)c1 (stereo not given) | 1.6 | 44.4
CCOc1ccc(NC(=O)c2c(NC(=O)c3ccccc3F)sc3c2CCC3)cc1 | 0.1 | 8.0
COCCCNC(=O)C1CCN(Cc2cc3ccccc3n2Cc2cccc(C)c2)CC1 | 3.7 | 20.7
O=C(CSc1nc2ccccc2n1Cc1c(F)cccc1Cl)N1CCN(c2ccc(F)cc2)CC1 | 1.3 | 14.2
Cc1cccc(NC(=O)c2sc3nc(N4CCOCC4)c4c(c3c2N)CC(C)(C)OC4)c1 | 1.0 | 49.4
CC(=O)c1cccc(NC(=O)CSc2nnc3ccc(-c4ccc(Br)cc4)nn23)c1 | -0.1 | 17.7
Cc1ccc(C)c(CN2C(=O)c3ccccc3S(=O)c3ccc(C(=O)NCc4ccccc4Cl)cc32)c1 (stereo not given) | 0.8 | -6.1
Cc1ccc(CN2CCSc3ccc(C(=O)NCC(C)c4ccccc4)cc32)cc1 (stereo not given) | 1.6 | 45.2
Cc1cc(-c2ccc(S(=O)(=O)Nc3ccccc3F)s2)on1 | -0.5 | -9.1
CCC12CN3CC(C)(CN(C1)C3c1ccc(O)cc1O)C2=O (stereo not given) | -0.6 | -8.0
COc1ccc(-c2nc(CSc3nncn4c3cc3oc(C)cc34)c(C)o2)cc1 | 0.1 | -1.0
CCCSC1=NC2(CCN(C(=O)NC3CCCCC3)CC2)N=C1c1ccccc1 | -0.5 | -23.4
CCOc1ccccc1N(C)C(=O)c1sc2nc3n(c(=O)c2c1C)CCCC3 | 0.2 | -8.7
CCOc1ccccc1NC(=O)c1nn(C)c2c1CSc1ccccc1-2 | 0.9 | 3.8
COc1ccc(CC(=O)N2CC(=O)Nc3ccc(Br)cc3C2c2ccc(F)cc2)cc1 (stereo not given) | 1.9 | 47.3
CCn1cc(C(=O)OCC(=O)Nc2ccc(C)c(Cl)c2)c(=O)c2ccc(C)nc21 | -0.8 | 13.9
COc1cc(CN(C(=O)COc2ccc(Cl)c(C)c2)c2ccccn2)cc(OC)c1OC | -0.5 | 13.2
CC(=O)N1c2ccc(S(=O)(=O)N3CCCCCC3)cc2CC1C(=O)NCc1ccccc1F (stereo not given) | -0.6 | -8.2
Cc1c(Cl)cccc1NC(=O)Nc1nnc(N2CCCCCC2)s1 | -0.1 | -9.2
COc1ccc(CC(=O)N2CCc3cc(OC)c(OC)cc3C2COc2cc(C)cc(C)c2)cc1OC (stereo not given) | 2.3 | -3.7
Cc1nc(N2CCCC2)ncc1C(=O)N1CCN(c2ccc(Cl)cc2)CC1 | 2.1 | -27.7
COc1ccc(-c2nc3c4ccccc4n(CC(=O)Nc4cc(F)ccc4F)c(=O)n3n2)cc1 | 0.6 | -6.9
Cc1ccc(NC(=O)CSc2nc(=O)n(Cc3ccccn3)c3c2CCC3)cc1F | -0.5 | 0.0
COc1ccc(Cn2c(CCC(=O)Nc3cc(OC)c(OC)c(OC)c3)nc3cccnc32)cc1 | 2.3 | -9.5
CCc1ccc(Cn2nnc3c(=O)[nH]c(C4CCCN(C(=O)c5cccc(Cl)c5)C4)nc32)cc1 (stereo not given) | 4.0 | -4.6
CCOc1ccc(NC(=O)Cn2c(C)ccc(C#N)c2=O)cc1 | 0.2 | -10.8
CCOc1ccc(NC(=O)c2cc(C)nc3c2c(C)nn3-c2cccc(F)c2)cc1 | -0.4 | -4.3
Cc1cc(C)nc(NS(=O)(=O)c2ccc(NC(=O)COc3ccc(Cl)cc3C)cc2)n1 | -0.2 | 6.5
C/C=C/C(=O)[C@@H](C)[C@@H](/C=C/C[Si](C)(C)C)c1ccccc1 | -0.3 | -1.1
O=C(CCn1cnc2ccccc2c1=O)NCc1ccccc1 | -0.3 | -9.4
COc1cc(C2C(=O)N(C3CCC(C)CC3)CC(=O)N2CCc2ccc(Cl)cc2)ccc1OC(C)C (stereo not given) | -0.5 | 1.7
CCc1cccc(C)c1NC(=O)CN1CCN(Cc2ccccc2Cl)S1(=O)=O | 1.0 | 4.6
CCOCCCNC(=O)c1[nH]c2cc(C)ccc2c1Sc1ccc(Cl)cc1 | -0.3 | 0.2
Cc1ccc(NC(=O)CSc2nnc(COc3ccc(Cl)cc3)o2)c(C)c1 | 0.5 | -7.7
Cc1ccc(C)c(N2CCN(C3(c4ccccc4)C(=O)c4ccccc4C3=O)CC2)c1 | 0.9 | 8.8
Cc1ccc(C(=O)NC2(C(F)(F)F)N=C(c3ccccc3)N(Cc3ccccc3)C2=O)cc1 (stereo not given) | 0.3 | 2.1
CCOc1cc(CNC(=O)c2cc(-c3ccc(Cl)s3)nc3ccccc23)ccc1OC | 1.5 | 27.5
Cc1noc(C)c1S(=O)(=O)N(CC(=O)Nc1ccc(F)cc1F)c1ccc(C(C)C)cc1 | 0.9 | -13.7
CC(=O)N1CCCc2cc(S(=O)(=O)N(C)CC(=O)Nc3ccc(F)cc3Cl)ccc21 | -1.4 | -5.4
COc1cccc(NC(=O)NCc2ccc3c(c2)CCN3C(=O)c2ccccc2)c1 | 1.1 | -1.1
CCN(CC)S(=O)(=O)c1ccc2c(c1)N(CC(=O)Nc1cccc(C)c1C)C(=O)C1CCCN21 (stereo not given) | 0.7 | 8.2
N#C/C(=C/c1ccccc1Cl)c1nc2ccccc2c(=O)[nH]1 | 2.5 | -1.8
Cc1ccc2nc(-c3c[nH]c4ccccc34)c(Nc3ccccc3C)n2c1 | 1.4 | -5.3
CC(=O)c1ccc(NC(=O)c2sc(-n3nc(C)c(Cc4ccc5c(c4)OCO5)c3C)nc2C)cc1 | 0.0 | -1.4
CCN(Cc1ccccc1)c1ncnc2c1cnn2-c1ccc(F)cc1 | -0.3 | 59.0
Cc1ccc(Cn2c(SCC(=O)C(C)(C)C)nc3ccsc3c2=O)cc1 | 1.8 | 61.3
O=C(NCc1ccccc1)c1cccn1-c1nnc(N2CCCCC2)s1 | 1.4 | -16.3

(more compounds)
SMILES | TRPML1 agonist | TRPML1 inh
CC1CCN(C(=O)Cn2cc(SCC(=O)Nc3ccccc3C(F)(F)F)c3ccccc32)CC1 | 3.1 | -23.9
CCOC(=O)c1ccc(N2C(=O)Cc3cc(OCC)c(OCC)cc3C2c2ccccc2)cc1 (stereo not given) | 1.3 | 33.1
CCN1CCN(c2ncnc3c2cnn3-c2ccc(C)cc2)CC1 | 1.1 | 22.5
Cc1ccc2c(=O)c(C(=O)c3ccc(F)cc3)cn(CC(=O)NCCc3ccccc3)c2n1 | 1.8 | -2.4
Cc1ccc(C)c(N2CCN(C(=O)C3CCN(S(=O)(=O)c4cn(C)cn4)CC3)CC2)c1 | 0.4 | -11.2
CCc1ccccc1NC(=O)C1(C)Cc2ccccc2C(=O)O1 (stereo not given) | 1.0 | -4.6
CCc1ccc(NC(=O)CCCn2nc(C)c3c(C)n(-c4ccccc4)nc3c2=O)cc1 | 2.2 | 10.9
COc1ccc(CCNC(=O)c2ccc3c(c2)nc(C)n3-c2ccc(Br)cc2)cc1OC | 1.9 | 29.3
CC1CCN(S(=O)(=O)c2cc(C(=O)NCc3ccc(F)cc3)n(C)c2)CC1 | 2.1 | 16.3
COc1ccccc1CNC(=O)Cn1ncc2c3ccccc3n(Cc3ccccc3C)c2c1=O | 1.6 | -8.3
COc1ccc2c(c1)CC(C(=O)N1CCC(C(N)=O)CC1)CO2 (stereo not given) | -0.4 | 5.1
CCOC(=O)C1CCN(c2ncnc3c2c(-c2ccccc2)cn3-c2ccc(C)c(Cl)c2)CC1 | 0.4 | -10.2
O=C(Nc1cccc(-c2nc3ccccc3o2)c1)C(F)(F)F | -0.3 | -6.8
Cc1cc(C)c(NC(=O)Cn2nnc(-c3nc(-c4ccncc4)no3)c2N)c(C)c1 | -0.2 | -6.3
COc1cc2[nH]c(=O)n(CCCCCC(=O)N3CCN(c4cccc(C(F)(F)F)c4)CC3)c(=O)c2cc1OC | 0.4 | 0.1
COCCCNC(=O)CSc1nc2cc3c(cc2c(=O)n1CCCCCC(=O)NCCc1ccc(OC)c(OC)c1)OCO3 | 1.4 | -4.2
CCn1cc(C(=O)N2CCN(c3ccc(OC)cc3)CC2)c(=O)c2cc(S(=O)(=O)N(C)C3CCCCC3)ccc21 | -1.3 | -0.9
Cc1c(Cl)cccc1NC(=O)Cn1c(=O)n(Cc2ccco2)c(=O)c2sc3ccccc3c21 | 0.2 | 9.0
COc1ccc(CNC(=O)CSc2nnc(C)c3c(C)n(-c4ccccc4)nc23)c(OC)c1 | 0.1 | 1.9
CCCCNC(=O)CSc1nc2ccccc2nc1Cc1ccc(Cl)cc1 | 2.0 | -16.3
CCOC(=O)c1ccccc1NC(=O)N(Cc1ccco1)C1CCN(C(C)=O)CC1 | -0.2 | u
CCOc1ccc(NC(=O)Cn2c(=O)c(CNc3ccc(CC)cc3)cc3cc4c(cc32)OCO4)cc1 | 1.6 | -11.2
CCOc1ccc(CN2CCc3nc(N4CCN(c5ccccn5)CC4)ncc3C2)cc1OC | 1.9 | 22.7
Cc1ccc(NC(=O)Cn2nc(-c3ccccc3)nc(Cc3ccc(Cl)cc3)c2=O)cc1 | 0.8 | 2.7
CC1CC=CC2C1C(=O)N(Cc1ccccc1)C2c1ccc(C(F)(F)F)cc1 (stereo not given) | 3.6 | 76.6
COc1ccc(OC)c(NC(=O)N2CCC(N3CCN(Cc4ccc(F)cc4)C(=O)C3=O)CC2)c1 | -0.2 | 1.3
Cc1ccc2c(Sc3ccc(Cl)cc3)c(C(=O)N3CCCCC3)[nH]c2c1 | 0.8 | 21.1
CC(=O)C1=C(c2ccccc2)N(C(C)=O)n2c(nnc2C2CCCCC2)S1 | 0.4 | -9.3
COc1ccc(Br)cc1CNC(=O)c1ccc2c(c1)nc1n2CCC(C)C1 (stereo not given) | 1.3 | 22.3
O=C(CSc1nc(Nc2ccc(F)c(F)c2)c2ccccc2n1)c1ccc(Cl)cc1 | 1.8 | -4.6
CCCCNC(=O)CCn1c(=O)c2ccccc2n(Cc2cccc(Cl)c2)c1=O | -0.4 | -5.8
CCc1ccc(NC(=O)CC2C(=O)N(c3ccc(C)cc3)C(=O)N2C2CCCC2)cc1 (stereo not given) | -0.3 | 13.8
Cc1cccc(C(=O)NCC(c2ccco2)S(=O)(=O)c2cccs2)c1 (stereo not given) | 0.3 | 5.8
COCCCNC(=O)CSc1nc(-c2ccccc2)[nH]c1-c1ccc(C)cc1 | 1.1 | 1.4

The list is partial. The share of hits here may be higher or lower than overall.
